# Screening results as filed in PubChem BioAssay.
# Sa growth inh – inhibitors of Staphylococcus aureus growth at 42 °C; AID 720641; relative growth, % (concentration not given with the values); hit rate 0.53% among 170,000; S. aureus RN4220 growth, OD600, 20 h; active compounds read low;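 active means growth at 42 °C up to 50% and 20 or more points under that at 30 °C, or under 10% at both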;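 further: 300 nL library stock went into each well; scaled to the means of positive and negative controls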
# GIV-Gai inh – blocks GIV peptide binding to rat Galpha-i3. AID 1224905. hit rate 0.42% among 210,000. P08753. Galpha-i3/FITC-GIV peptide fluorescence polarization, 90 min; active compounds read low; scaled: aluminum fluoride 0%, vehicle 100%. percent of control (FP), % (test concentration not listed);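 active means replicate mean at 85% of control or lower, very high polarization wells dropped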;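 further: lower values mean more displacement of the GIV peptide from Galpha-i3; wells of about 15 µL received 100 nL stock; the first replicate is given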
# Target sequence (P08753 whole entry, looked up): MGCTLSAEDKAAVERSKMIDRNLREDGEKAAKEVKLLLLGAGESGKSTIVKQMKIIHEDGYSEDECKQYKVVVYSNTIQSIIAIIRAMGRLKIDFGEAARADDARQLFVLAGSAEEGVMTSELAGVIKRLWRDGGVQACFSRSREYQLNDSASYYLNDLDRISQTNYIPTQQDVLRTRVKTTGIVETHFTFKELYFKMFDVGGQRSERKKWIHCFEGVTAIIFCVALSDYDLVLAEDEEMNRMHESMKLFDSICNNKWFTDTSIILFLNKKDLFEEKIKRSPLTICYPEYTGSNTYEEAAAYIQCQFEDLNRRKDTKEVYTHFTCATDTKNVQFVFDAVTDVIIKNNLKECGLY
# HCMV NEC inh – disrupts HCMV UL50-UL53 complex binding; HTRF UL50-UL53 interaction, normalized percent inhibition; inhibition, % (no concentration beside the values); hit rate 0.15% among 190,000;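 active means both replicates at 50% or more, plus weaker picks with an unusually low signal ratio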;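 further: stock transfer was 100 nL into about 20 µL; 0% = negative control wells and 100% = wells with untagged competitor protein; inactives centre near -12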
# Sa growth inh second temp – also measured in Sa growth inh; calls as there; relative growth, %; measured here: growth at 30 °C;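 optical density after 20 h as mean of two plates; 100% = untreated growth and lower means inhibition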
# * = called active by the depositor; nt = not tested or not shown; & = joins results of further samples.
SMILES,Sa growth inh,Sa growth inh second temp,GIV-Gai inh,HCMV NEC inh
CC(C)(C)NC(=O)c1ccc(-n2nc(C(F)(F)F)c3c2-c2ccoc2CC3)cc1,116,96,101,nt
COc1ccc(C2=NN(C(=O)COn3nnc4ccccc43)C(c3ccco3)C2)cc1 (configuration not stated),106,101,nt,-3
Cc1c(C(=O)Nc2ccccc2Br)oc2ccc(S(=O)(=O)N3CCCCCC3)cc12,91,96,96,nt
COc1c(C)cnc(Cn2c(SCC(=O)Nc3ccc(F)cc3)nc3ccccc32)c1C,nt,nt,101,4
CCN(CC)C(=O)Cn1c(=O)n(CC(=O)NCc2ccc(C)cc2)c(=O)c2sccc21,104,86,106,-2
CC(C)CN(CC(C)C)C(=O)CSc1nnc(C(C)N(C)C)n1Cc1ccccc1 (configuration not stated),87,87,nt,-14
COc1cc(OC)c(OC)cc1CO,97,102,nt,1
CCOc1cc(C(=O)NC(C)(C)CC)cc(OCC)c1OCC,93,102,110,7
Cc1cc(N2CCN(S(=O)(=O)c3ccc(F)c(F)c3)CC2)nc(N2CCOCC2)n1,nt,nt,98,-12
Cn1c(=O)c2c(nc(CN3CCc4ccccc4C3)n2CCCc2ccccc2)n(C)c1=O,110,103,101,3
COc1ccc(OCc2nnc3sc(C4COc5ccccc5O4)nn23)cc1 (configuration not stated),nt,nt,108,-26
CCn1c(O)c(C=Nc2cc(S(=O)(=O)CC)ccc2O)c(=O)n(CC)c1=S,100,102,nt,-1
COCc1nc2cccnc2n1C1CCN(S(=O)(=O)N(C)C)CC1,81,88,105,nt
Cc1oc(-c2ccccc2)nc1Cn1c(=O)cc(-c2ccccc2)c2c(C)nn(C)c21,103,95,101,nt
CC(=O)n1c2ccccc2c2nc(C)sc21,113,83,101,nt
CCN(CC)C/C(C)=N/Nc1ccccc1,89,81,101,-16
CCOC(=O)c1ccc(NC(=O)Cn2cc3c(n2)CCCC3)cc1,100,82,105,2
Cc1cc(C)c(C#N)c(Sc2ccccn2)n1,89,79,100,-7
CC[n+]1c(C)sc2ccccc21,46,46,nt,-18
Cc1nc(-c2cccc(Cl)c2)n[nH]1,91,78,108,38
CC1=CC(C)C2(COC(=O)Nc3ccccc3)COC(C)C1C2C (configuration not stated),104,110,96,14
COc1ccc(Nc2nc(N)nc(CC(=O)CSc3ccc(C)cc3)n2)cc1,93,96,107,7
CCOC(=O)C1CCCN(C(=O)c2ccc(Cl)cc2)C1 (configuration not stated),83,72,101,-11
COc1cccc(CCNC(=O)c2ccc(Cn3c(SCc4ccccc4)nc4cccnc43)cc2)c1,115,94,97,3
Cc1cccc(CNC(=O)C2CCN(S(=O)(=O)c3cccc4nonc34)CC2)c1,99,82,101,nt
COC(=O)c1ccccc1NC(=O)NCCc1c(C)nn(C)c1C,87,85,100,nt
CCN(CC)c1nc2c(S(=O)(=O)c3cccc(Cl)c3)nnn2c2ccsc12,105,63,99,nt
O=C(Cn1cnc2ccccc2c1=O)Nc1cc(C(F)(F)F)ccc1N1CCOCC1,87,82,nt,-14
CC12CN3CC(C)(CN(C1)C31C(=O)Nc3ccccc31)C2=O (configuration not stated),nt,nt,100,-6
COc1cc(CO)cc(Br)c1OCc1cccnc1,95,98,109,-7
O=C1NC(=Nc2ccc(Cl)cc2)SC1Cc1cccc2ccccc12 (configuration not stated),nt,nt,102,-4
Cc1cc(Br)ccc1NC(=O)CCS(=O)(=O)c1cccc2nsnc12,108,108,111,-40
O=S(=O)(c1ccc2nc(-c3cccs3)c(-c3cccs3)nc2c1)N1CCOCC1,81,79,nt,-57
CCOc1ccc(CCN2CNc3c(-c4cccc(Cl)c4)c(C)nn3C2)cc1,101,88,106,-36
CC12CC(C(C#N)=C(N)N1)c1ccccc1O2 (configuration not stated),115,60,103,2
COc1nc(N2CCCC2)[nH]c(=O)n1,98,82,104,-28
CCCCc1ccc(NC(=O)CSc2nc(C3CCCCC3)c(C#N)c(=O)[nH]2)c(C)c1,119,91,104,-44
COc1ccc(NC(=O)C2(N(C)C(=O)c3ccc(-n4cnnn4)cc3)CCCCC2)cc1,99,83,111,6
O=C(Nc1ccc(Br)cc1)c1nc(-c2ccccc2)n(-c2ccccc2)n1,nt,nt,101,-22
O=C(NCCc1ccc(Cl)cc1)c1ccc2c(c1)N(Cc1ccccc1)C(=O)CS2,118,84,101,nt
COc1ccccc1/C=N/NC(=O)CNc1ccccc1OC,86,79,97,-45
COc1cccc(-c2cc(C(=O)N3CCN(C(=O)c4cc(OC)c(OC)c(OC)c4)CC3)[nH]n2)c1,96,96,105,7
COc1cccc(NC(=O)c2ccc(-c3cccc(Cl)c3C)o2)c1,83,91,102,nt
Cc1ccc(C)n1-c1ccon1,73,100,nt,-9
CC(OC(=O)c1cccnc1)C(=O)Nc1cc(Cl)cc(Cl)c1 (configuration not stated),107,85,nt,-28
O=C(Cc1ccccc1)Nc1c(C(=O)N2CCN(c3ccc(F)cc3)CC2)oc2ccccc12,81,55,105,nt
COc1ccc(CNC(=O)c2ccc3c(c2)N=C(C)c2c(C)ccc(C)c2S3)cc1,96,86,103,-40
O=C(C1CCN(c2nnc(N3CCCC3=O)s2)CC1)N1CCC(Cc2ccccc2)CC1,nt,nt,103,-11
N#Cc1c(NC(=O)COCc2cc(-c3ccco3)on2)sc2c1CCCC2,85,79,106,-33
CC(C)Cc1ccc(C(C)NC(C)CC(N)=O)cc1 (configuration not stated),100,99,nt,-14
O=C(Cc1ccccc1)NCCc1csc2nc(-c3ccc(Cl)cc3)nn12,88,79,105,nt
CC(=O)N1CCC2(CC1)OC(=O)C(C)=C2C(=O)Nc1cc(C)ccc1C,87,83,98,nt
CN(C)c1ccc(C(=O)NCc2ccc3c(c2)CCN3C(=O)c2ccc(Cl)cc2)cc1,98,97,103,nt
Cc1c(C(=O)Nc2ccc(F)cc2F)sc2nc3n(c(=O)c12)CCCCC3,nt,nt,102,10
C=CCn1c(COc2ccc(CC)cc2)nnc1SCC(=O)c1cc2ccccc2o1,96,80,nt,-19
CCOc1cc2[nH]c(=O)n(CCC(=O)NC3CCCC(C)C3C)c(=O)c2cc1OCC (configuration not stated),94,94,100,-12
O=C(Nc1nnc(S(=O)(=O)N2CCCCC2)s1)c1ccc(F)cc1,75,80,110,0
COc1ccc(C=Nc2n[nH]c(Nc3ccccc3)c2-c2nnc3n2CCCCC3)cc1,86,91,nt,-17
Oc1ccccc1C=Nc1cccnc1,108,93,83*,-5
CCCCC(=O)Nc1noc2ccccc12,112,86,104,nt

# An excerpt from above in order of heavy-atom count, ascending.
SMILES,Sa growth inh,Sa growth inh second temp,GIV-Gai inh,HCMV NEC inh
Oc1ccccc1C=Nc1cccnc1,108,93,83*,-5
CCCCC(=O)Nc1noc2ccccc12,112,86,104,nt
CC(C)Cc1ccc(C(C)NC(C)CC(N)=O)cc1 (configuration not stated),100,99,nt,-14
CC(=O)N1CCC2(CC1)OC(=O)C(C)=C2C(=O)Nc1cc(C)ccc1C,87,83,98,nt
O=C(Cc1ccccc1)NCCc1csc2nc(-c3ccc(Cl)cc3)nn12,88,79,105,nt
CCOc1cc2[nH]c(=O)n(CCC(=O)NC3CCCC(C)C3C)c(=O)c2cc1OCC (configuration not stated),94,94,100,-12

# (further entries)
SMILES,Sa growth inh,Sa growth inh second temp,GIV-Gai inh,HCMV NEC inh
CCc1nnc2sc(NC(=O)c3ccco3)nn12,95,85,101,nt
COc1cccc(CNc2nn[nH]n2)c1OCc1ccc(Cl)cc1,94,83,98,-16
O=C(CC1SC(=O)N(Cc2ccccc2)C1=O)Nc1nccs1 (configuration not stated),88,94,nt,-34
Cc1ccc2nc(NC(C)C(=O)O)nc(-c3ccccc3)c2c1 (configuration not stated),75,79,107,-27
O=C(c1c(F)cccc1F)N1CCN(c2ccc3nnc(-c4ccccc4)n3n2)CC1,98,85,101,5
COC(=O)c1ccccc1NC(=O)Cn1c(=O)n(CCC(=O)NCc2ccc3c(c2)OCO3)c(=O)c2ccccc21,111,91,100,-3
CC1=C(C(=O)OCCOc2ccccc2)C(c2ccc3c(c2)OCO3)NC(=O)N1C (configuration not stated),nt,nt,104,-4
COc1ccc(CN(C)C(=O)c2cccc(F)c2)c(OC)c1OC,114,99,nt,4
CCC1CN(C(=O)NCc2ccccc2)c2cc(C)ccc2O1 (configuration not stated),95,94,102,-10
Cc1ccc2c(c1)c(CC(=O)Nc1ccc(C)c(F)c1)c(C(=O)O)n2C,88,61,104,1
COC(=O)CN(C(C)=O)C(c1ccccc1)c1cc(Br)ccc1NC(=O)c1ccccc1Cl (configuration not stated),113,96,97,5
Cc1ccc(-c2nnc(-c3ccc(NC(=O)C(C)C)cc3)o2)cc1,104,87,108,0
CCOC(=O)Nc1ccc2c(c1)N(C(=O)CN1CCOCC1)c1ccccc1CC2,114,97,101,-29
CCCCNC(=O)c1ccc2c(=O)n(C3CCCC3)c(=S)[nH]c2c1,109,93,107,-4
COc1ccc(OCc2cc(=O)n3nc(C)sc3n2)cc1,90,98,107&106,0&-11
Nc1cc(N)nc(SCc2ccccc2C(F)(F)F)n1,80,52,98,-14
c1ccc2oc(C3=NNC(=NCCN4CCOCC4)SC3)cc2c1,90,80,nt,-50
CC1=CC(C)=N[N+]1(C)CC(O)COc1ccccc1 (configuration not stated),98,106,nt,7
O=C(NC1CCCC1)c1cccc(Nc2cc(-c3ccccc3)ncn2)c1,nt,nt,106,-31
CSc1cc(-c2ccncc2)nc(-c2ccc(Cl)cc2)c1,71,67,102,-18
Fc1ccc(N=Cc2cccnc2)cc1F,94,97,nt,-17
O=C(Nc1ccc2nn(-c3ccc(Cl)cc3)nc2c1)c1cc2ccccc2o1,104,92,108,-45
O=C1CC(N2CCN(c3ccc(O)cc3)CC2)C(=O)N1c1ccc(Cl)c(C(F)(F)F)c1 (configuration not stated),88,93,nt,-6
O=C(O)C1=Nc2cccc3cccc(c23)N1,96,42,nt,-41

# 6 entries out of the list above, sorted by the number in Sa growth inh, falling.
SMILES	Sa growth inh
CCOC(=O)Nc1ccc2c(c1)N(C(=O)CN1CCOCC1)c1ccccc1CC2	114
CCCCNC(=O)c1ccc2c(=O)n(C3CCCC3)c(=S)[nH]c2c1	109
O=C(O)C1=Nc2cccc3cccc(c23)N1	96
Fc1ccc(N=Cc2cccnc2)cc1F	94
c1ccc2oc(C3=NNC(=NCCN4CCOCC4)SC3)cc2c1	90
Nc1cc(N)nc(SCc2ccccc2C(F)(F)F)n1	80

# (next part)
SMILES,Sa growth inh,Sa growth inh second temp,GIV-Gai inh,HCMV NEC inh
COc1ccc(C2C(C(N)=O)C2(C#N)C#N)cc1 (configuration not stated),99,88,nt,-16
COC(=O)c1cc(S(=O)(=O)NCC2CCN(Cc3ccc(C)cc3)CC2)cn1C,103,93,106,nt
O=C1C=CC(=O)C(c2ccc(Cl)cc2)=C1,81,48,102,-35
Cc1ccc(N=C2C(=O)N(CN(C)C)c3ccccc32)cc1,84,73,107,-32
Cc1ccc(N2C(=O)C3CN4CCCN4C3C2=O)cc1 (configuration not stated),94,81,97,5
COc1cc(Cl)c(C(F)(F)F)cc1NC(=O)c1c(OC)cccc1OC,79,90,99,-26
O=C(NCCc1nc2cccnc2n1-c1ccccc1)Nc1ccc(Cl)cc1,nt,nt,114,-10
COC(=O)c1ccc(Oc2nc(N3CCCC3)c(Cl)c3c2N(CC2CCCO2)CCS3(=O)=O)cc1 (configuration not stated),nt,nt,100,-12
COc1cccc(C(=O)NCC(c2ccc(N(C)C)cc2)N2CCCC2)c1OC (configuration not stated),95,91,102,nt
CCOC(=O)c1c(C)oc2nc(C)nc(NCc3ccc(Cl)cc3)c12,112,92,128,nt
CS(=O)(=O)N(CC(=O)Nc1cccnc1)c1ccc(Cl)cc1,109,95,103,11
CC(C)C(=O)Nc1csc(C(F)(F)F)c1-c1ccccc1,102,94,104,-2
Cc1cccc(NC(=O)NCCc2csc(C)c2C)c1,nt,nt,108,0
O=C(NCCCn1c(-c2ccncc2)nc2cccnc21)Nc1cccc(Cl)c1,nt,nt,103,-7
